High-throughput results (PubChem BioAssay)
Sfp PPTase inh – qHTS Assay for Inhibitors of Bacillus subtilis Sfp phosphopantetheinyl transferase (PPTase). Biochemical Sfp PPTase activity, qHTS. Potency, µM, inactives show max response, negative = inhibition, actives largely listed as inhibitors. 3.5% of 310,000 active. AID 1490, 2009; active means well fitted inhibition curve with a large enough effect; inconclusive means small, poorly fitted or top-dose-only effect, or another doubt; inactive means no such curve, though single readings can be large or run the other way;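 further: the enzyme is Sfp with the accession as filed and its product quenches rhodamine fluorescence; potency means the concentration at half of the fitted maximal effect; 0% = enzyme reaction without inhibitor and -100% = no enzyme wells; top concentration of the series not given in the record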
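Reaction rates are the 30-min fluorescence difference (ex 525, em 598 nm) in wells containing 15 nM Sfp, 5 uM rhodamine-CoA and 12.5 uM BHQ-2-YbbR at pH 7.6 with 10 mM MgCl2.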
PINK1 expr mod – A Quantitative High throughput Screen to Identify Chemical Modulators of PINK1 Expression; Potency, µM (series often up to 76.6 µM), for inactives: at the highest dose activation (PINK1 increase), hits mostly activators; 0.2% of 410,000 active; AID 624263, 2012; PINK1 immunofluorescence, high-content cytometry, 24 h; active = well fitted activation curve with a large enough effect; inconclusive = small, poorly fitted or top-dose-only effect; inactive = flat fitted curve, though single readings scatter; cell line not stated here;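 further: potency means the concentration at half of the fitted maximal effect; % of control where 0% means no effect; nearly all actives have a fitted effect of over 65% in size; a mitochondrial uncoupler was the plate control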
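Stable cell line treated 24 h with compounds at 5 concentrations (CCCP controls), then fixed and immunostained for PINK1 plus nuclear and cell stains; PINK1 immunofluorescence quantified by laser-scanning microplate cytometry.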
TRPV1 potentiator – HTS Assay for Compounds that Act as Potentiators of the Vanilloid Receptor 1; potentiation, % at 8.33 µM; Transient receptor potential cation channel subfamily V member 1 (Homo sapiens), Q8NER1; AID 540277, 2011; TRPV1-expressing cells, Fluo-8 calcium influx, capsaicin EC20 potentiation; host cell line not named in the record; control for the full effect not named in the record; 0.02% of 320,000 active; active means potentiation above 80%; inconclusive means 30% to 80%; inactive means below 30%; further: 0% is about no effect
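Cells expressing TRPV1 were dye-loaded with Fluo-8 and read kinetically: 10 s baseline, 3 min after compound (agonist portion), then 2 min after EC20 capsaicin (allosteric enhancer portion). Calcium-bound dye fluorescence at 480/520 nm.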
D2 ag – Beta-Arrestin HTS for Positive Allosteric Modulators of the Human D2 Dopamine Receptor: Agonists; activation, % (test concentration not listed); D(2) dopamine receptor (Homo sapiens), P14416; 0.084% of 360,000 active; DiscoveRx PathHunter D2 beta-arrestin, luminescence, 90 min; 100% = 57 uM dopamine signal; in the data active = activation above about 40%; inconclusive = about 15% to 40%; inactive = below about 15%; further: compound concentration not given in the record; the text of the record calls up to 30% inactive
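Agonist mode: compounds alone added to overnight-plated D2 PathHunter cells for 90 min at 37 C, with 57 uM final dopamine (EC100) defining full response. Beta-arrestin recruitment detected by chemiluminescent reagent, read after 1 h at ambient temperature.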
Six1-Eya2 blk – qHTS Assay for Inhibitors of the Six1/Eya2 Interaction | AlphaScreen GST-Six1/His-Eya2 binding, biochemical; stronger effect = lower value; control for the full effect not named in the record | activity change, % (test concentration not listed) | 0.56% of 360,000 active; in the data active = activity change below about -65%; inconclusive = about -30% to -65%; inactive = above about -30%; further: on the % scale 0 is the no-effect control and ±100 the full control effect; compound concentration not given in the record
Target sequence (O00167 whole entry, looked up): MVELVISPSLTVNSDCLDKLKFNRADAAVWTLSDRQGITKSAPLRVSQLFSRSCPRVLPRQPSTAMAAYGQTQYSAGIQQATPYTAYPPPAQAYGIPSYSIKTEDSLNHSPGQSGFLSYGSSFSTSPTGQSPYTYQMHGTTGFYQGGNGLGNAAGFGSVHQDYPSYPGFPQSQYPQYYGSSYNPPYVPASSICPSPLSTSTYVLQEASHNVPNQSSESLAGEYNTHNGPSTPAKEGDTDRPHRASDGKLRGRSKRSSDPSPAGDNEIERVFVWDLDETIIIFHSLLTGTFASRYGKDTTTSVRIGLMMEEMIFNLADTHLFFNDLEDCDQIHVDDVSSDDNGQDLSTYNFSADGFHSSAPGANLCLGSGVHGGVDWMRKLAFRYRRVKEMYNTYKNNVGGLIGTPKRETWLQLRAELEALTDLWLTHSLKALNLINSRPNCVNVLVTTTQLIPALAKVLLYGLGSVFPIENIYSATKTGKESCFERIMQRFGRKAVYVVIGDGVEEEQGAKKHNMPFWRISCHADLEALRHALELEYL
Target sequence (Q15475 whole entry, looked up): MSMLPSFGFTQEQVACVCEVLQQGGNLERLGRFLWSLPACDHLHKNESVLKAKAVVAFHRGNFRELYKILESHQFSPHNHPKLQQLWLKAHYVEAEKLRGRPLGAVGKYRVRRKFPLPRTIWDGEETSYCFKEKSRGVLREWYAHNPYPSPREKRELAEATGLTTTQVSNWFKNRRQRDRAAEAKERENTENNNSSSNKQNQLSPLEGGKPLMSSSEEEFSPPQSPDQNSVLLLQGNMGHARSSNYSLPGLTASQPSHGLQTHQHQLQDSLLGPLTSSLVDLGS
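Homogeneous AlphaScreen proximity assay pairing GST-Six1 with His-tagged Eya2 (added as 5X mix: 250 nM and 500 nM) in 50 mM Tris pH 8.0, 300 mM NaCl, 1 mM TCEP. Glutathione donor and nickel acceptor beads; 1 h, 37 °C, dark.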
D2 potentiator – Beta-Arrestin HTS for Positive Allosteric Modulators of the Human D2 Dopamine Receptor: Potentiators; D(2) dopamine receptor (Homo sapiens), P14416; 0.23% of 360,000 active; DiscoveRx D2 beta-arrestin cells, luminescence, 90 min; 100% = 57 uM dopamine signal; AID 624464, 2012; potentiation, % (no concentration beside the values); active = potentiation of 50% or more; inconclusive = 30% to 50%; inactive = 30% or less;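 further: compound concentration not given in the record; tested on top of an EC20 dose of dopamine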
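PathHunter D2 cells, attached overnight at 37 deg C, received compound in DMSO plus dopamine at EC20 (50 nM final) for 90 min at 37 deg C. Beta-arrestin recruitment was read as luminescence after 1 h with detection reagent at ambient temperature.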
CtBP-E1A blk – qHTS Assay for Inhibitors of the CtBP/E1A Interaction | AlphaScreen GST-E1A/His-CtBP binding, 1536-well; stronger effect = lower value; control for the full effect not named in the record | activity change, % (no concentration beside the values) | 0.49% of 340,000 active; in the data active means activity change below about -65%; inconclusive means about -30% to -65%; inactive means above about -30%; further: on the % scale 0 is the no-effect control and ±100 the full control effect; compound concentration not given in the record
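In 5 uL wells, 23 nL compound meets equimolar GST-E1A and His-CtBP (5X stock 125 nM each) for 2 h, 37 °C. Beads (5X, 50 ug/mL) then 1 h, 37 °C, dark.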
Active calls of the source: *; u = inconclusive; x = no result given; [ ] = remark or other dose. This is a random part of the collection; overall some 3.7% were active at least once.

smiles	Six1-Eya2 blk	PINK1 expr mod	D2 ag	CtBP-E1A blk	TRPV1 potentiator	Sfp PPTase inh	D2 potentiator
N#CC1=C(N)Oc2cc(N)ccc2C1c1ccccc1 (stereo not given)	0	3.9%	-2.6	0	x	x	2
CC(=O)Nc1cccc(NC(=S)Nc2ccc(F)cc2F)c1	0	-0.7%	3.3	8	4	40µM*	7
COc1ccc(NC(=O)CN2C(=O)NC(C)(c3ccccc3)C2=O)c(OC)c1 (stereo not given)	-4	1.7%	2.7	4	3	14%	-7
COC(=O)c1ccc(-n2c(C)cc(/C=N/n3cnnc3)c2C)cc1	3	-1.1%	0.3	-12	-3	-1%	15
O=[N+]([O-])c1ccc(-c2nc3ccc([N+](=O)[O-])cc3[nH]2)cc1	-9	u	0.4	-12	-18	5%	3
Nn1c(SCC(=O)NC2CCCCC2)nnc1-c1ccco1	4	-0.1%	-1.2	x	-4	x	13
O=C1CSC2=NCN(c3ccc4c(c3)OCO4)CN12	-14	0.2%	-1.9	-1	4	u	-5
CCOC(=O)c1sc(N)c(C(=O)Nc2ccccc2)c1C	-12	5.0%	-4.1	0	4	20µM*	-3
Cc1cccc(OCC(=O)NC(=S)Nc2ccccc2N2CCOCC2)c1C	8	8.6%	-1.6	0	12	6%	-1
CCN(CC)S(=O)(=O)c1ccc2c(c1)N(CC(=O)Nc1ccc(NC(C)=O)cc1)C(=O)CO2	-5	2.4%	-3.1	-10	4	18%	3
COc1ccc(NC(=O)NC2CCCCCCC2)c(OC)c1	-4	-0.8%	-0.6	-2	-8	4%	-9
CCOC(=O)C1=C(CN2c3ccccc3CC2C)NC(=O)NC1c1ccccc1 (stereo not given)	-25	0.0%	-3.6	-19	1	-6%	-5

Sfp PPTase inh: hit marks shown above
| structure | Six1-Eya2 blk | PINK1 expr mod | D2 ag | CtBP-E1A blk | Sfp PPTase inh | D2 potentiator |
| --- | --- | --- | --- | --- | --- | --- |
| CC(=O)Nc1cccc(NC(=S)Nc2ccc(F)cc2F)c1 | 0 | -0.7% | 3.3 | 8 | 40µM* | 7 |
| CCOC(=O)c1sc(N)c(C(=O)Nc2ccccc2)c1C | -12 | 5.0% | -4.1 | 0 | 20µM* | -3 |

Additional results follow:
smiles	Six1-Eya2 blk	PINK1 expr mod	D2 ag	CtBP-E1A blk	TRPV1 potentiator	Sfp PPTase inh	D2 potentiator
CCc1ccc(NC(=O)CC2C(=O)Nc3c2c(=O)n(C)c(=O)n3C)cc1 (stereo not given)	5	0.0%[38.3 µM]	-4.1	4	5	21%	-8
NC(=O)CCCn1c(C(=O)c2ccc(Cl)cc2)c2ccc([N+](=O)[O-])cc2[n+]1[O-]	3	-0.1%	u	-11	-7	x	1
CCOc1ccccc1CNc1ncnc2ccc(-c3c(C)noc3C)cc12	x	3.4%	x	x	27	-9%	x
COc1cc(S(=O)(=O)N2CCOCC2)ccc1F	2	0.0%	-2.7	-2	u	5%	-4
COC(=O)c1cn(NC(=O)c2ccccc2[N+](=O)[O-])c(=O)c2ccccc12	-15	1.7%	-9.6	-12	-16	9%	-22
Cc1cc(NC(=O)c2cccc3ccccc23)cc(C)c1OCC(=O)N1CCOCC1	-3	0.1%	-3.9	-2	10	17%	-9
Cc1nnc2sc(COc3ccccc3)nn2c1=O	14	0.9%	-2.4	4	4	10%	-8
CCN(CCO)Cc1cc(=O)oc2c(C)c(C)ccc12	-11	-6.5%[38.3 µM]	0.2	-3	-6	-9%	-5
COCCOC(=O)c1c(C)n(C)c2ccc(OC(=O)c3ccccc3F)cc12	0	1.8%	-1.1	x	-4	9%	-3
COC(=O)c1cc(S(=O)(=O)N2CCCCC2C)c[nH]1 (stereo not given)	6	0.2%	2.1	x	-11	20%	-5
Cc1ccccc1NC(=O)C1CCCN1/C=C/C(=O)C(F)(F)F (stereo not given)	10	4.9%	-3.8	11	-7	16%	-16
C[C@H](CO)N1C[C@H](C)[C@@H](CN(C)Cc2cccnc2)Oc2ncc(-c3cccc(C#N)c3)cc2C1=O	0	0.6%	-10	3	x	x	0

Whole records as entered above. Order of values: Six1-Eya2 blk, PINK1 expr mod, D2 ag, CtBP-E1A blk, TRPV1 potentiator, Sfp PPTase inh, D2 potentiator
Cc1ccccc1NC(=O)C1CCCN1/C=C/C(=O)C(F)(F)F (stereo not given) is listed with 10, 4.9%, -3.8, 11, -7, 16%, -16
COc1cc(S(=O)(=O)N2CCOCC2)ccc1F is listed with 2, 0.0%, -2.7, -2, u, 5%, -4

An excerpt from above in order of their number in PINK1 expr mod, largest number first:
compound | PINK1 expr mod
CCOc1ccccc1CNc1ncnc2ccc(-c3c(C)noc3C)cc12 | 3.4%
Cc1nnc2sc(COc3ccccc3)nn2c1=O | 0.9%
C[C@H](CO)N1C[C@H](C)[C@@H](CN(C)Cc2cccnc2)Oc2ncc(-c3cccc(C#N)c3)cc2C1=O | 0.6%
Cc1cc(NC(=O)c2cccc3ccccc23)cc(C)c1OCC(=O)N1CCOCC1 | 0.1%
NC(=O)CCCn1c(C(=O)c2ccc(Cl)cc2)c2ccc([N+](=O)[O-])cc2[n+]1[O-] | -0.1%

Following part.
smiles	Six1-Eya2 blk	PINK1 expr mod	D2 ag	CtBP-E1A blk	TRPV1 potentiator	Sfp PPTase inh	D2 potentiator
CN(C)S(=O)(=O)c1cccc(NC(=O)C(c2ccccc2)c2ccccc2)c1	2	0.5%	-0.3	-8	17	30%	-8
CC(C)Cn1nc(C(=O)NCc2ccccc2CN2CCCC2)c2ccccc2c1=O	4	0.1%	-1.2	-3	-8	x	-32
COc1cccc(N2CCN(C(=O)c3cccc(S(=O)(=O)N4CCCC4)c3)CC2)c1	-2	7.6%	-2.5	4	x	x	-5
NC(=O)c1ccccc1NC(=O)CC1(CC(=O)O)CCCC1	4	-0.4%	-1.3	2	-14	32%[activator]	8
O=C(Oc1oc(-c2ccco2)nc1C=Nc1ccc(Cl)cc1)c1ccco1	11	3.1%	-0.8	8	-6	-18%	-14
CCOC(=O)c1cc2occc2n1CC(=O)NC1CCC(C)CC1 (stereo not given)	-1	-0.5%[38.3 µM]	-1.8	7	5	2%	-5
CCN(CC(=O)NCc1cccs1)C(=O)c1ccc(OC)c(OC)c1	1	0.2%	-6.5	8	6	x	-18
OCC[C@@H]1C[C@@H](O)[C@H](O)[C@]2(CCc3ccccc3CO2)O1	2	0.4%	-7.9	4	-9	11%	-9
Cn1c(SCc2ccccc2)nc(N)c(N=O)c1=O	3	1.2%	-0.4	x	x	x	-10
CCn1c(SCC(=O)NNC(=O)c2ccc(C)cc2)nnc1-c1ccco1	0	-2.4%	1.3	-21	0	u	3
COC(=O)C1=C(C(=O)OC)[C@@H]2Nc3ccccc3[C@@]23C[C@@H](C(=O)OC)N(C(=O)C2CCC2)C3=N1	0	4.5%	-0.2	4	x	-14%	-3
S=C(NCCc1ccncc1)Nc1cccc2ccccc12	3	-0.7%	-0.2	22	0	2%	-6
CC(=O)Nc1ccc(-n2nnnc2SCC(=O)N2CCN(C(=O)c3ccco3)CC2)cc1	3	-0.5%	-0.2	3	12	-4%	1
CC1CCN(S(=O)(=O)c2ccc(NC(=O)CN3CCOCC3)cc2)CC1	2	5.2%[38.3 µM]	-1.0	-1	-1	19%	9
O=C(Nc1ccccc1-c1nc2ccccc2[nH]1)c1ccc(N2C(=O)CCC2=O)cc1	1	u	-3.9	0	0	18%	0
Cc1ccsc1/C=C1\Oc2cc(O)ccc2C1=O	-5	0.0%	-1.6	22	x	x	0
O=C(CN1CCCCCC1)N/N=C/c1cccc(Cl)c1	-3	5.1%	-1.5	8	-14	-15%	-16
COC(=O)c1ccc(N2CCN(C(C)=O)CC2)c(NC(=O)c2cccnc2)c1	5	-0.5%	u	10	-3	9%	-3
Cc1nnc2ccc(N3CCN(C(=O)c4ccccc4)CC3)nn12	-4	-0.2%	-3.7	2	x	13%	-6
c1ccc(-n2ncc3cccnc32)cc1	3	-0.4%	0.2	x	-25	2%	3
O=C(O)c1ccc(NS(=O)(=O)c2ccc3c(c2)C2C=CCC2C(c2ccccc2F)N3)cc1 (stereo not given)	-17	0.6%	6.7	-5	2	10µM*	12
Cc1ccc(S(=O)(=O)N2CCN(C(=O)Cn3c(=O)cnc4ccccc43)CC2)c(C)c1	-11	0.4%	0.2	9	x	x	29
CCOC(=O)c1c(NC(N)=O)sc(C)c1C	-1	-3.3%	-3.0	2	9	-13%	-5
COc1cc(CC(=O)NC2CCCc3ccccc32)cc(OC)c1OC (stereo not given)	3	-0.1%	-1.8	-1	6	20%	-2
O=C(NC1CCCCC1)Nn1c(-c2ccccc2)nc2ccccc2c1=O	23	-0.6%	-1.5	3	-7	0%	-7
Cc1noc(C)c1CSc1nc2ccccc2s1	15	-0.2%	-1.7	11	u	-8%	-1
CCn1c(SCC(=O)NCCc2ccccc2)nnc1-c1ccco1	-1	-0.6%	-2.2	2	9	u	-39
O=C(OCc1ccccc1)N1CCC2CC1c1ccc(Cl)cc12 (stereo not given)	-1	16%	-11	-16	x	x	-7
CC(=O)Nc1ccc(-c2ccnc3c2CC(C(=O)Nc2cccc(C(C)=O)c2)O3)cc1 (stereo not given)	-6	6.0%	1.8	-6	x	x	7
CN1CCN(C(=O)/C=C/c2ccc(Cl)c(Cl)c2)CC1	3	1.2%	-4.8	1	6	4%	-26
CCc1ccccc1N(CC)C(=O)CCc1nc(-c2ccc(C)cc2)no1	14	18%	-4.1	25	u	u	-14
Cc1ccc(C)c(CC(=O)N2CCCCC2c2cc(C(=O)Nc3cccc(C#N)c3)no2)c1 (stereo not given)	-3	2.0%	-1.1	-3	x	x	-4
CCOC(=O)Cc1csc(NC(=O)c2ccc(S(=O)(=O)N3CCOCC3)cc2)n1	-7	2.0%	-0.6	-19	28	-5%	-4
COc1ccc2c(c1)c(C(O)CN1CCN(Cc3ccc4c(c3)OCO4)CC1)c(C)n2C (stereo not given)	-23	3.6%	0.9	-15	8	-12%	-33
